Env fusion inh – inhibitors of HIV-1 Env-driven cell-cell fusion, primary screen, HeLa-JRFL effector, CEM21 target cells, luciferase | inhibition, % at 12.3 µM | 1.1% of 360,000 active;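 active = mean replicate inhibition score of at least 50 and every replicate individually at or above 50; inconclusive = only one of the two criteria met; inactive = mean below 50 and not all replicates reaching 50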;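 also: 0% = plate neutral controls and 100% = maraviroc near 300 nM; one replicate is shown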
CSC inhib – cancer stem cell viability inhibitors, primary screen, luminescence | AID 2717, 2010 | inhibition, % at 7.5 µM | 1.1% of 300,000 active | cancer stem cell-like cells viability;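 active = mean at 75% or more and at least half the replicates too; inconclusive = mean and replicates disagree; tested in HMLE shEcad cells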;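 also: 0% = median of negative and 100% = median of positive control wells; the first replicate is given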
PABP FP inh – PABP poly(A) RNA binding inhibitors, primary screen, biochemical, fluorescence polarization, uHTS. 1% of 290,000 active. AID 2014, 2009. inhibition, % at 35 µM;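 active = 50% or more with normal probe brightness, or confirmed in later tests; inconclusive = above 50% with abnormal brightness, or retests that disagree; inactive = below 50% or failed in later tests; about a fifth of its hits are not listed in these tables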;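 also: calls also rest on retests at 20 µM and on dose response follow-up; controls were probe without protein and protein plus probe with vehicle; some compounds called inactive have numbers as strong as hits; many hits fall short of the cut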
Target sequence (P11940 whole entry, looked up): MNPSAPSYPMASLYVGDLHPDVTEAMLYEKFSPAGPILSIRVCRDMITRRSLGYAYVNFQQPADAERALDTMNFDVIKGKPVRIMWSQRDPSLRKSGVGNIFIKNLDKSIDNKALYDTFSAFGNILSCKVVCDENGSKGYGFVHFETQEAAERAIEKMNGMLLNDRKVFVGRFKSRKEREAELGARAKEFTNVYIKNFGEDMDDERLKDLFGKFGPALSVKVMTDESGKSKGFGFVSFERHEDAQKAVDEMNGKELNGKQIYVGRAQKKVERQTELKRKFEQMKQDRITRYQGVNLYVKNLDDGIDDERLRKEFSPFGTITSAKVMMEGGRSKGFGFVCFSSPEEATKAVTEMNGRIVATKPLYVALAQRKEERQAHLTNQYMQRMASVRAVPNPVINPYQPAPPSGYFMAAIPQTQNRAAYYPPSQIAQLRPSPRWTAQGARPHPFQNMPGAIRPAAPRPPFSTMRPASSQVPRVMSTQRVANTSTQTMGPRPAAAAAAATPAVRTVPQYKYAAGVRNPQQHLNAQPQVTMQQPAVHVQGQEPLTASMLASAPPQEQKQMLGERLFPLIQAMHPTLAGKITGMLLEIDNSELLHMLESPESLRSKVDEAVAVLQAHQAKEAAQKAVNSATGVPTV
eIF4H inh – human eIF4H binding inhibitors, primary screen, translation initiation inhibitor project, biochemical, uHTS, fluorescence polarization. AID 2012, 2009. inhibition, % at 35 µM. Eukaryotic translation initiation factor 4H (Homo sapiens), Q15056. 0.94% of 290,000 active. eIF4H fluorescence polarization binding assay;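 active = 50% or more with normal probe brightness, or confirmed in later tests; inconclusive = above 50% with abnormal brightness, or retests that disagree; inactive = below 50% or failed in later tests; about a fifth of its hits are not listed in these tables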;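 also: calls also rest on retests at 20 µM and on dose response follow-up; 0% = protein and probe with vehicle and 100% = probe without protein; strong numbers were not always called active; many hits fall short of the cut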
Rce1 inh – yeast Rce1p protease inhibitors, primary screen, biochemical, fluorescence, cell-free homogeneous; CAAX prenyl protease 2 (Saccharomyces cerevisiae (strain ATCC 204508 / S288c)), Q03530; yeast membranes, quenched prenylated peptide cleavage fluorescence; calls only; 0.27% of 290,000 active; AID 2563, 2010;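 active = fall in fluorescence gain of 50% or more versus controls, with final raw signal at or below 3038400; inconclusive = same 50% fall but final raw signal above 3038400; inactive = fall in fluorescence gain under 50%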;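 also: plate controls were neutral control wells for no effect and wells lacking membranes for full effect; tested at 10 µM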
Target sequence (Q03530 whole entry, looked up): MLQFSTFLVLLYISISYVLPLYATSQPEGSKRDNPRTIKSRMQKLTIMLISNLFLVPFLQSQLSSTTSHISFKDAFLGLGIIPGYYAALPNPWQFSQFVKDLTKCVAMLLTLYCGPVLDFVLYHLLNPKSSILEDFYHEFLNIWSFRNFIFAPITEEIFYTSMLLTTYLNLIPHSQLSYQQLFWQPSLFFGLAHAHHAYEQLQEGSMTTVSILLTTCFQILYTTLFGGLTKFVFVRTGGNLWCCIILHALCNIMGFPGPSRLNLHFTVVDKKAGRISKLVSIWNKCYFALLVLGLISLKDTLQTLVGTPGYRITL
UUG fidelity – modulators of yeast start codon fidelity, primary screen, whole organism, S. cerevisiae, single point, plate reader. S. cerevisiae UUG-firefly luciferase reporter, luminescence/redox ratio. activity score, % at 18.7 µM. 0.13% of 350,000 active. AID 602363, 2012;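 active = replicate mean at a twofold rise or more, about +100% in these data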;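 also: firefly luciferase made from a UUG start codon reports start codon fidelity; reporter light over untreated wells divided by growth signal over untreated wells; some hits fall short of that in this replicate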
MT1-MMP act inh – blockers of MT1-MMP proenzyme processing, primary screen, HT1080 RFP-PRO-GFP cells, GFP/RFP fluorescence | Matrix metalloproteinase-14 (Homo sapiens), P50281 | GFP/RFP ratio fluorescence, overnight; percent of plate control window, DMSO zero | GFP/RFP ratio change, % at 20 µM | 0.061% of 360,000 active | AID 651647, 2012;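 active = GFP/RFP ratio change of at least 30% with cell ATP level not reduced by more than half and red fluorescence within 50% of control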; also: strong numbers were not always called active
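Compound: 20 µM single dose, 1% DMSO / System: HT1080 RFP-PRO-GFP cells / Controls: DMSO and RFP-L50D-GFP cell wells / Read-out basis: GFP/RFP fluorescence ratio / Schedule: overnight compound exposure at 37 °C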
eIF4H inh retest – second read-out of eIF4H inh, no call of its own (marks repeat the call); inhibition, %; compound at 20 µM; confirmation average;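 mean of two retest wells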
PABP FP inh retest – also measured in PABP FP inh; calls as there; inhibition, %; compound at 20 µM; confirmation repeats;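 mean of two retest wells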
MT1-MMP act inh RFP – further read-out of MT1-MMP act inh, marked with its call; RFP signal change, %; measured here: RFP expression control read;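 0 = vehicle wells; hits needed this value within 50% of zero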
Active calls of the source: *; i = inactive; ? = inconclusive; . = not tested or not shown; & = joins results of further samples. No enrichment for hits; about 3% have a hit in one of these screens.

SMILES	Env fusion inh	CSC inhib	PABP FP inh	eIF4H inh	Rce1 inh	UUG fidelity	MT1-MMP act inh	MT1-MMP act inh RFP	others
CSCCC(NC(=O)c1ccc(Br)cc1)C(=O)O (stereo unspecified)	4	-4	4	-1	i	-12	4	3
O=[N+]([O-])c1cccc(/C=N/Nc2nc(NCc3ccccc3)nc(N3CCOCC3)n2)c1	-40	21	2	-1	i	.	3	5
Cc1cc(Br)ccc1NC(=O)C1CCN(C(=O)c2ccco2)CC1	15	-2	-10	-4	i	-9	1	1
C[C@H]1CN([C@@H](C)CO)C(=O)CCCn2nncc2CO[C@@H]1CN(C)S(=O)(=O)c1cn(C)cn1	-5	.	.	.	.	-1&-11	-4	2
Clc1cccc(Cl)c1Cn1nnc(-c2cccs2)n1	-100	-7	-11	0	i	-5	3	5
COc1ccc(CCNS(=O)(=O)c2csc(C(N)=O)c2)cc1OC	-10	-11	7	-2	i	-15	1	1
Cc1cccc(NC(=O)COC(=O)c2n[nH]c3ccccc23)c1C	4	.	.	.	.	-5	-3	-4
N#CCSc1nnc(COc2ccccc2)n1-c1ccccc1	5	.	2	-4	i	-10	8	3
CC(SCC(=O)Nc1ccc(F)cc1)c1nc2ccccc2c(=O)[nH]1 (stereo unspecified)	-9	-3	0	-9	i	-9	2	4
Nc1cccc(C#Cc2ccc3c(c2)C(=O)/C(=C/c2ccsc2)O3)c1	-37	.	.	.	.	-28	-3	-8
c1ccc(-n2c(SCc3ccncc3)nnc2-c2ccco2)cc1	.	-15	2	0	i	-9	1	-1
CC1CCN(C(=O)c2[nH]cnc2C(=O)NCc2ccc(CNC(=O)OC(C)(C)C)cc2)CC1	2	-19	.	.	.	3	1	-16
Cn1c(SCC(=O)Nc2ccc(Br)cn2)nnc1C1CC1	-15	-10	14	30	i	-11	-2	4
O=C(c1ccccc1)N1CCN(CCc2ccccc2)CC1	3	.	1	9	i	-8	-1	1
CNc1nc(-c2ccc3c(c2)CCN3C(=O)c2ccccc2F)c(C)s1	8	-7	4	-3	i	-5	1	1
O=S(=O)(NCc1ccccc1F)NCc1ccccc1F	4	0	24	1	i	3	0	2
Cc1ccccc1OCc1nnc(SCC(=O)Nc2ccc(N3CCOCC3)c(Cl)c2)n1C	21	9	-6	10	i	-21	-2	-6
O=c1[nH]c(=O)n(Cc2ccccc2)c2c1C(C(F)(F)F)(C(F)(F)F)N=C(c1ccco1)N2	-19	4	5	-10	i	1	3	-10
CN(C)c1nc2n(c(=O)n1)CCS2	.	4	-8	-3	i	-27	1	6
O=S(=O)(c1ccc2c(c1)OCCO2)N1CCN(c2nc(-c3cccnc3)nc3ccccc23)CC1	.	-9	-4	1	i	.	.	.

Grouped by structure: the entries above with a thiophene ring, fused or not (3)
SMILES	Env fusion inh	CSC inhib	PABP FP inh	eIF4H inh	Rce1 inh	UUG fidelity	MT1-MMP act inh	MT1-MMP act inh RFP	others
Clc1cccc(Cl)c1Cn1nnc(-c2cccs2)n1	-100	-7	-11	0	i	-5	3	5
COc1ccc(CCNS(=O)(=O)c2csc(C(N)=O)c2)cc1OC	-10	-11	7	-2	i	-15	1	1
Nc1cccc(C#Cc2ccc3c(c2)C(=O)/C(=C/c2ccsc2)O3)c1	-37	.	.	.	.	-28	-3	-8

Additional structures follow:
SMILES	Env fusion inh	CSC inhib	PABP FP inh	eIF4H inh	Rce1 inh	UUG fidelity	MT1-MMP act inh	MT1-MMP act inh RFP	others
CCCNC(=O)N(C)C[C@@H]1Oc2cc(C#C[C@H](C)O)ccc2S(=O)(=O)N([C@H](C)CO)C[C@H]1C	5	.	.	.	.	4&-10&-6	-2	2
CCCN(CCC)C(=O)Cn1c(=O)c2ccccc2n2c(=S)sc(-c3ccccc3C)c12	16	11	2	-3	i	.	-28	-16
CC(C)OC(=O)C1=C2SCC(=O)N2C(N)=C(C#N)C1	-25	5	-6	14	i	-18	-11	5
CCOC(=O)c1ccccc1N/C=C/C(=O)c1ccccc1	-65	-13	.	.	i	-8	-12	-8
O=C(NCCCn1ccnc1)C(Cc1ccccc1)N1C(=O)c2ccccc2C1=O (stereo unspecified)	-15	6	-3	7	i	-22	1	6
COc1ccc2oc(=O)c(C(=O)N3CCCc4ccccc43)cc2c1	-9	0	-8	-3	i	-4	10	4
Cc1cc(=O)oc2c(C)c(OCC(=O)Nc3cccnc3)ccc12	-31	-6	9	-5	i	-22	-1	2
CC1=NN(c2ccccc2)C(=O)/C1=C/c1c(O)n(-c2ccc(F)c(Cl)c2)[nH]c1=O	.	103*	3	0	i	.	.	.
O=C(COC(=O)c1ccc(Br)o1)NCCNC(=O)COC(=O)c1ccc(Br)o1	18	-10	.	.	i	-8	3	2
COC(=O)C(CCCCN1C(=O)C2C3C=CC(C3)C2C1=O)N1C(=O)C2C3C=CC(C3)C2C1=O (stereo unspecified)	.	27	-6	2	i	2	2	-5
COc1cc(C(=O)Nc2ccc(NC(=O)c3ccccc3)nc2)cc(OC)c1OC	13	-1	2	10	i	4	4	0
CCS(=O)(=O)N1CCN(c2ccc(C(=O)NC3C4CC5CC(C4)CC3C5)cc2[N+](=O)[O-])CC1 (stereo unspecified)	32	42	4	-11	i	.	-2	-14
O=C(O)/C=C/C(=O)NC1CCCCC1	20	-17	3	2	i	-10	-4	1
CCc1ccccc1NC(=O)c1cc(S(=O)(=O)N(C)C)ccc1N1CCCC1	.	.	4	0	i	-11	2	1
COC(=O)C1=C(C)Nc2nnnn2C1c1cccnc1 (stereo unspecified)	.	-4	4	-4	i	-15	1	8
O=C(NCCc1ccccc1F)C1CCCN1S(=O)(=O)c1ccc2ccccc2c1 (stereo unspecified)	30	-2	0	3	i	-5	-3	-13
O=C(CCCn1c(=O)[nH]c2cc(Cl)ccc2c1=O)NCCCN1CCN(c2ccc(F)cc2)CC1	-3	-11	4	1	i	.	0	-12
Cc1cc(C)cc(SCc2noc(C(=O)NCCCN3CCOCC3)c2C(=O)NCCCN2CCOCC2)c1	-4	-6	-14	-12	i	-40	10	6
COC(=O)c1ccsc1NC(=O)c1ccccc1	-9	-8	6	2	i	-4	2	4
Cc1cc(N2CCOCC2)n2ncc(-c3ccc(Cl)cc3)c2n1	-248	21	-2	0	i	-22	-2	-8
O=C(NCCCNCc1ccccc1)/C(=N\O)c1ccccc1	-66	.	-5	-6	.	-7	.	.
COc1cccc(OC)c1C(=O)Nc1ccccc1N1CCCCC1	28	42	11	3	i	-9	-2	-6
COC(=O)c1ccccc1OCC(=O)N1CCN(c2ccc(Cl)cc2)CC1	50	-1	11	-11	i	-8	-2	-10
O=C(NC1(C(F)(F)F)NC(=O)N(C2CCCCC2)C1=O)C1CC1 (stereo unspecified)	0	-24	-7	-2	i	-13	-2	-1
CC(C)CNC(=O)COC(=O)c1n[nH]c2ccccc12	-10	-17	?	-1	i	.	-3	1
Cc1c(Cl)cnc(NC(=O)COC(=O)c2ccc([N+](=O)[O-])s2)c1Cl	3	7	-16	65	i	-23	-9	0	eIF4H inh retest=3;PABP FP inh retest=32
CCCC1=Nc2cc(C(=O)NCCN3CCOCC3)ccc2Sc2ccc(C)cc21	6	29	-9	-2	i	22	0	0
Cc1cnc(CN(C)Cc2c(C(=O)N3CCc4ccccc4C3)nc3ccc(Cl)cn23)[nH]1	9	6	30	34	i	-8	-6	-2
COc1ccc(/C=C2\SC(=S)N(CC(=O)N3CCN(C)CC3)C2=O)cc1	1	16	-16	-6	i	-9	3	0
CCCCNS(=O)(=O)c1ccc2nc(SCC(=O)Nc3cc(C)cc(C)c3)[nH]c2c1	.	4	16	-6	i	.	3	2
CCOc1ccc(-c2cc3nc(C4CCN(C(=O)OC(C)(C)C)CC4)c(C(=O)O)cn3n2)cc1	19	41	6	2	i	-12	1	-1
COc1cc(SC)ccc1C(=O)Nc1ccc(OCC(=O)N2CCOCC2)cc1	-58	.	4	8	i	-21	1	-2
O=C(COC(=O)c1cccc(Cl)c1)NC1CCCCCCC1	5	9	.	.	.	-11	-2	-2
CC(=O)N1CCc2c(sc(NC(=O)CCS(=O)(=O)c3ccccc3)c2C#N)C1	-12	-5	-6	-9	i	-4	-2	2
NS(=O)(=O)c1ccc(NC(=S)NCC2CCCO2)cc1 (stereo unspecified)	10	4	-2	0	i	-7	-5	-4
CCCOC(=O)c1ccc(NC(=O)COC)cc1	.	-1	-1	2	i	0	0	2
CCCCNC(=O)COc1ccccc1[N+](=O)[O-]	-32	-30	-5	9	i	0	.	.
CC(=O)c1cccc(NC(=S)NC(=O)c2ccccc2Br)c1	-1	-1	27	-8	i	.	-3	-5
COC(=O)C(C)(C)ONC(=O)Nc1ccccc1Br	-6	4	-11	3	i	-35	0	-1
CN(C(=O)c1ccc(-c2nn(C)c(=O)c3ccccc23)cc1)c1ccccc1	30	.	0	-3	i	.	2	-6

6 structures already listed, arranged by formula weight, low to high:
SMILES	Env fusion inh	CSC inhib	PABP FP inh	eIF4H inh	Rce1 inh	UUG fidelity	MT1-MMP act inh	MT1-MMP act inh RFP	others
COC(=O)C(C)(C)ONC(=O)Nc1ccccc1Br	-6	4	-11	3	i	-35	0	-1
COc1cccc(OC)c1C(=O)Nc1ccccc1N1CCCCC1	28	42	11	3	i	-9	-2	-6
COC(=O)c1ccccc1OCC(=O)N1CCN(c2ccc(Cl)cc2)CC1	50	-1	11	-11	i	-8	-2	-10
COc1ccc(/C=C2\SC(=S)N(CC(=O)N3CCN(C)CC3)C2=O)cc1	1	16	-16	-6	i	-9	3	0
CCCC1=Nc2cc(C(=O)NCCN3CCOCC3)ccc2Sc2ccc(C)cc21	6	29	-9	-2	i	22	0	0
Cc1cnc(CN(C)Cc2c(C(=O)N3CCc4ccccc4C3)nc3ccc(Cl)cn23)[nH]1	9	6	30	34	i	-8	-6	-2

Remaining list, next part
SMILES	Env fusion inh	CSC inhib	PABP FP inh	eIF4H inh	Rce1 inh	UUG fidelity	MT1-MMP act inh	MT1-MMP act inh RFP	others
O=C(NC(Cc1c[nH]c2ccccc12)c1nnc2n1CCCCC2)c1ccc(Cl)cc1 (stereo unspecified)	0	.	11	-7	i	.	0	-2
N#Cc1nc(Cc2cccc3ccccc23)oc1N1CCOCC1	.	-4	-2	4	.	4	-4	-7
CN1c2ccc(Cl)cc2C(=O)NC1c1ccc([N+](=O)[O-])s1 (stereo unspecified)	-9	13	6	-2	i	2	-1	-6
Cc1cc(C(=O)CSc2nnc(-c3ccncc3)n2-c2ccccc2)c(C)n1C	31	-8	126*	120*	i	.	-6	2
CCOC(=O)c1[nH]c2ccccc2c1NC(=O)Nc1ccc(OC)cc1	.	-3	-6	-2	i	-11	1	1
O=C(CSc1nnc(-c2ccc(OC(F)F)cc2)o1)N1CCOCC1	.	-11	-7	0	i	-1	-2	0
C/C(=N\N1CCN(c2ccccc2)CC1)c1cccs1	2	5	-5	2	i	.	0	-1
COc1ccc(NC(=O)CSc2nnc(C)c3ccccc23)cc1	-21	9	-1	-21	i	-7	1	6
CCOc1ccc(NC(=O)C(C)Oc2ccccc2C(=O)Nc2ccc(C)c(Cl)c2)cc1 (stereo unspecified)	-28	56	-10	5	i	-5	-8	0

Assay outcomes deposited in PubChem BioAssay by several laboratories.
